gsp ag – qHTS for Agonist of gsp, the Etiologic Mutation Responsible for Fibrous Dysplasia/McCune-Albright Syndrome: qHTS | Potency, µM (highest dose often 76.9 µM), inactives show at the top dose activation (cAMP increase), hits mostly activators | AID 624287, 2012 | gsp mutant cells, cAMP HTRF, 30 min; control for the full effect not named in the record | 0.13% of 340,000 active; active = well fitted activation curve with a large enough effect; inconclusive = small, poorly fitted or top-dose-only effect, or another doubt; inactive = no such curve, though single readings can be large or run the other way; cell line not stated here;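 further: phosphodiesterase inhibitor Ro 20-1724 added with compounds to block cAMP breakdown; potency means the concentration at half of the fitted maximal effect; nearly all actives have a fitted effect of over 60% in size; about a fifth of the inactives were tested at one dose only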
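Cells stably selected in G418 were plated at 2000/well, grown 16-24 hr, then given compounds in DMSO with the PDE inhibitor […] (300 uM solution added) for 30 min at 37C; cAMP was read by HTRF.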
gsp antag – qHTS for Antagonists of gsp, the Etiologic Mutation Responsible for Fibrous Dysplasia/McCune-Albright Syndrome: qHTS; Potency, µM (doses to about 76.9 µM), for inactives: at the top dose activity change, negative = inhibition, usual class: inhibitors; 0.4% of 340,000 active; gsp-mutant cells, cAMP HTRF, 30 min; control for the full effect not named in the record; AID 624288, 2012; active = falling curve of any shape with a large fitted effect; inconclusive = falling curve, mostly with a smaller effect; inactive = flat or rising curve; cell line not stated here;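 further: intracellular cAMP measured with PDE inhibitor Ro 20-1724 present during compound exposure; potency means the concentration at half of the fitted maximal effect; on the % scale 0 is the no-effect control and ±100 the full control effect; nearly all actives have a fitted effect of over 65% in size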
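HTRF cAMP read-out (cAMP-d2 plus anti-cAMP antibody-K in lysis buffer, 30 min RT). Before lysis, cells are exposed to compounds with […] for 30 min at 37C in DPBS containing Ca/Mg, BSA and Tween 20.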
Six1-Eya2 blk – qHTS Assay for Inhibitors of the Six1/Eya2 Interaction. Homeobox protein SIX1 (Homo sapiens) + Protein phosphatase EYA2 (Homo sapiens), …. AlphaScreen GST-Six1/His-Eya2 binding, biochemical; hits give low values; control for the full effect not named in the record. activity change, % (no concentration beside the values). 0.56% of 360,000 active; in the data active = activity change below about -65%; inconclusive = about -30% to -65%; inactive = above about -30%; further: on the % scale 0 is the no-effect control and ±100 the full control effect; compound concentration not given in the record
Target sequence (O00167 whole entry, looked up): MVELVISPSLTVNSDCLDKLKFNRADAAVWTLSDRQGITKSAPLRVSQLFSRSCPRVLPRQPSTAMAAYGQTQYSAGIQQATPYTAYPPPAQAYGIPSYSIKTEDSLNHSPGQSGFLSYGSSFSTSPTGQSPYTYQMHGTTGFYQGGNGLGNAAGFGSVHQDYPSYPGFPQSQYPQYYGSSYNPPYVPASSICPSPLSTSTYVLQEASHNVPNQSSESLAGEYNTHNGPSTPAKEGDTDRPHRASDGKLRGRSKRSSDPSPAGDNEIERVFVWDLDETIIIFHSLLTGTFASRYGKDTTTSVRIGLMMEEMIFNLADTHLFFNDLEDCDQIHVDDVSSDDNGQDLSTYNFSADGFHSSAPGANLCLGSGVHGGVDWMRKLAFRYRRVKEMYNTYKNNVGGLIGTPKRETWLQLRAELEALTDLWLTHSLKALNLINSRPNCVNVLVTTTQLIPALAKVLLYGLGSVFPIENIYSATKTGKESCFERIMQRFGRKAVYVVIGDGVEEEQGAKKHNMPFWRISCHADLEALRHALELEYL
Target sequence (Q15475 whole entry, looked up): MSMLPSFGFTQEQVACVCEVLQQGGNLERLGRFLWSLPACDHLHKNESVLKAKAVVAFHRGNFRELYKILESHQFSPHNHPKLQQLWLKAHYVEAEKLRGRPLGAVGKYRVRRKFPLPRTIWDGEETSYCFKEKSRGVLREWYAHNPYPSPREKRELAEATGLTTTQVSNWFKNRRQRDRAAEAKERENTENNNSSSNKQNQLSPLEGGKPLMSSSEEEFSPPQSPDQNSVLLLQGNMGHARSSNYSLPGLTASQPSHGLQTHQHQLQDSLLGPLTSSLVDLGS
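AlphaScreen with GST-Six1 and His-Eya2 (5X mix: 250 nM and 500 nM), glutathione donor and nickel acceptor beads; buffer 50 mM Tris pH 8.0, 300 mM NaCl, 1 mM TCEP; 1 h at 37 C in the dark.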
D2 ag – Beta-Arrestin HTS for Positive Allosteric Modulators of the Human D2 Dopamine Receptor: Agonists. DiscoveRx PathHunter D2 beta-arrestin, luminescence, 90 min; 100% = 57 uM dopamine signal. AID 624465, 2012. activation, % (no concentration beside the values). 0.084% of 360,000 active; in the data active = activation above about 40%; inconclusive = about 15% to 40%; inactive = below about 15%; further: compound concentration not given in the record; the text of the record calls up to 30% inactive
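Agonist mode: compounds alone added to overnight-plated D2 PathHunter cells for 90 min at 37 C, with 57 uM final dopamine (EC100) defining full response. Beta-arrestin recruitment detected by chemiluminescent reagent, read after 1 h at ambient temperature.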
D2 potentiator – Beta-Arrestin HTS for Positive Allosteric Modulators of the Human D2 Dopamine Receptor: Potentiators | DiscoveRx D2 beta-arrestin cells, luminescence, 90 min; 100% = 57 uM dopamine signal | 0.23% of 360,000 active | D(2) dopamine receptor (Homo sapiens), P14416 | AID 624464, 2012 | potentiation, % (test concentration not listed); active = potentiation of 50% or more; inconclusive = 30% to 50%; inactive = 30% or less;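 further: compound concentration not given in the record; tested on top of an EC20 dose of dopamine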
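PathHunter D2 cells, attached overnight at 37 deg C, received compound in DMSO plus dopamine at EC20 (50 nM final) for 90 min at 37 deg C. Beta-arrestin recruitment was read as luminescence after 1 h with detection reagent at ambient temperature.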
CtBP-E1A blk – qHTS Assay for Inhibitors of the CtBP/E1A Interaction; activity change, % (test concentration not listed); CtBP / adenovirus E1A interaction (AlphaScreen); AlphaScreen GST-E1A/His-CtBP binding, 1536-well; hits give low values; control for the full effect not named in the record; 0.49% of 340,000 active; in the data active means activity change below about -65%; inconclusive means about -30% to -65%; inactive means above about -30%; further: on the % scale 0 is the no-effect control and ±100 the full control effect; compound concentration not given in the record
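Protein mix (5X: 125 nM each GST-E1A, His-CtBP) was incubated with pinned compound 2 h at 37 deg C in dark, in 50 mM Tris pH 8.0 buffer with 300 mM NaCl. Glutathione donor and nickel acceptor beads followed; AlphaScreen signal read after 1 h.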
* marks the source's active call; other numbers are inactive results; u = inconclusive; x = no result given; [ ] = dose if it differs, or a comment.

SMILES | gsp ag | gsp antag | Six1-Eya2 blk | D2 ag | D2 potentiator | CtBP-E1A blk
CCn1c(Oc2ccccc2C)nc2c1c(=O)n(C)c(=O)n2C | -2% | -2% | -4 | -1.0 | 10 | x
O=C(COC(=O)c1cc(S(=O)(=O)N2CCOCC2)ccc1F)NC1CCCCC1 | 8% | -5% | 4 | 2.1 | -1 | -2
Cc1cc(C)c(NC(=S)NCCCSC2CCCCC2)c(C)c1 | 3%[15.4 µM] | -9% | -20 | -3.6 | -1 | -15
CC(C(=O)NC1CCCCC1)N(Cc1ccccc1)C(=O)c1snc(C(N)=O)c1N (configuration not stated) | -4%[15.4 µM] | 5% | 28 | -6.2 | -33 | -16
N#Cc1ccc(CCc2ccccc2)[nH]c1=O | 26% | -7% | -4 | -2.6 | -5 | 6
C(=N\c1nccs1)/c1cccnc1 | 7% | 5% | 0 | 1.6 | -20 | -2
CC(CC(F)(F)F)N1CCC(n2nccc2NC(=O)CCCc2ccccc2)CC1 (configuration not stated) | -26% | -5% | 10 | 5.7 | -6 | 6
Cc1ccc(-n2c(SCC(=O)Nc3ccc4cn[nH]c4c3)nnc2-c2ccco2)cc1 | 37% | -5% | 2 | 0.8 | -14 | -6
CSc1oc(-c2ccco2)nc1S(=O)(=O)c1ccc(C)cc1 | u | 2% | -7 | 7.3 | -4 | -5
CSc1nsc(SCCN2C(=O)c3ccccc3C2=O)n1 | -27% | -11% | 16 | -2.7 | -2 | 3
COc1cc(OC)cc(C(=O)N[C@H](C(=O)Nc2cccc(S(=O)(=O)N3CCCC3)c2)C(C)C)c1 | 2%[15.4 µM] | -13% | 0 | 0.4 | -18 | -1
Cc1noc(C)c1S(=O)(=O)N(C)C[C@H]1Oc2ccc(NC(=O)NC3CCCCC3)cc2C(=O)N([C@H](C)CO)C[C@@H]1C | -52%[inhibitor] | 11% | -4 | -0.9 | -1 | -2
C/C(CC(=O)Nc1ccc(N(C)C)cc1)=N\NC(=O)c1ccccc1F | -1% | -13% | -7 | 4.7 | -3 | -9
Cc1ccccc1NC(=O)c1cccc2nccnc12 | 6% | 13% | 1 | -1.0 | -3 | 9
O=C(CN(Cc1cccs1)C(=O)CNS(=O)(=O)c1ccc(Cl)cc1)NCC1CCCO1 (configuration not stated) | 4%[15.4 µM] | 9% | 6 | -4.7 | 3 | 3
O=C(O)CSc1nc2c(c(C(F)(F)F)n1)CCc1ccccc1-2 | -11%[15.4 µM] | -22% | 14 | -6.0 | -2 | -10
CCOC(=O)C1=C(C)Nc2ccccc2N=C1NC(=O)c1cccc(S(=O)(=O)NCc2ccccc2)c1 | 14% | -5% | 4 | 0.9 | 1 | -7
CCc1cccc(C)c1NC(=O)C1CCCN(S(C)(=O)=O)C1 (configuration not stated) | -32%[inhibitor] | 15% | 0 | 2.3 | 1 | 7
COCc1cc(C)nc(SCC(=O)Nc2ccccc2N2CCOCC2)c1C#N | -47%[inhibitor] | 3% | 9 | -3.7 | -5 | -9
CCCC(=O)OCC(=O)NCc1ccc(Cl)cc1 | 2%[15.4 µM] | 13% | 5 | -4.7 | 1 | -6

Compounds from the list above that contain a cyano group (2):
SMILES | gsp ag | gsp antag | Six1-Eya2 blk | D2 ag | D2 potentiator | CtBP-E1A blk
N#Cc1ccc(CCc2ccccc2)[nH]c1=O | 26% | -7% | -4 | -2.6 | -5 | 6
COCc1cc(C)nc(SCC(=O)Nc2ccccc2N2CCOCC2)c1C#N | -47%[inhibitor] | 3% | 9 | -3.7 | -5 | -9

Continued:
SMILES | gsp ag | gsp antag | Six1-Eya2 blk | D2 ag | D2 potentiator | CtBP-E1A blk
COc1ccc(CC(=O)c2ccccc2C(=O)O)cc1 | -5% | -1% | 6 | -2.7 | 2 | 32
CCN(CC)C(=O)c1[nH]cnc1C(=O)Nc1ccc(OC)cc1 | u | 10% | -12 | 0.4 | -9 | -13
CC(OC(=O)c1ccco1)C(=O)Nc1ccc(C(F)(F)F)cc1 (configuration not stated) | 20% | 4% | 4 | -1.6 | -5 | x
Cc1n[nH]c(=O)n1-c1ccc(C(C)(C)C)cc1 | -12%[15.4 µM] | 11% | 2 | 1.3 | -6 | x
CC(/C=N/NC(=O)c1cccnc1)=C\c1ccco1 | 15% | -10% | -13 | -3.0 | -13 | -16
O=C(O)CC(C(=O)Nc1ccc(Cl)cc1)N1CCCCCC1 (configuration not stated) | -50% | 3% | -1 | 4.1 | -7 | 2
COc1ccc(S(=O)(=O)N(CC(=O)NCC2CCCO2)c2ccc(Cl)cc2)cc1 (configuration not stated) | -20%[15.4 µM] | 0% | -17 | -1.5 | -1 | -5
CCNc1ccccc1C(=O)O | -18% | 3% | -2 | 5.1 | 0 | 1
CC1CCCN(C(=O)c2cccc(S(=O)(=O)Nc3cc(C(F)(F)F)ccc3Cl)c2)C1 (configuration not stated) | -8% | -15% | -21 | -2.5 | 12 | u
O=C(C1=C(O)C(=O)N(CCN2CCOCC2)C1c1cccc(Br)c1)c1cc2ccccc2o1 (configuration not stated) | u | 8% | -1 | -0.9 | -9 | x
C[C@@H](CN1C2=NC[C@H](C)N2C[C@H]1Cc1ccc(O)cc1)NC(=O)CCC1CCCCC1 | 19% | -8% | 0 | -4.2 | -33 | -1
CC(=O)N1CCN(c2ccc(NC(=O)c3ccc([N+](=O)[O-])o3)cc2Cl)CC1 | 5%[15.4 µM] | -21% | -10 | 6.4 | 15 | -21
COc1cc(CNCc2cccs2)ccc1OCC(N)=O | 3% | 0% | 7 | -0.1 | -2 | 10
O=C(CC1C(=O)NCCN1Cc1c(F)cccc1Cl)NCCC1=CCCCC1 (configuration not stated) | -4% | -17% | -4 | -3.2 | -11 | -13
COc1ccc(/C=C2\CCc3ccccc3C2=O)cc1Cn1nc(C)cc1C | 1% | u | -9 | -3.3 | -15 | -2
COc1ccc(CSc2n[nH]c(=O)[nH]c2=O)cc1 | 20% | x | -7 | -6.1 | -10 | -12
O=C(NCc1cccnc1)C1C2C=CC(C2)C1C(=O)Nc1cccc(C(F)(F)F)c1 (configuration not stated) | 16% | x | 1 | -0.7 | 3 | 0
O=c1[nH]c(CN2CCN(S(=O)(=O)c3ccc(Cl)cc3)CC2)nc2cc(Cl)ccc12 | -33% | 1% | 9 | -0.5 | 1 | 1
Cn1c(SCC(=O)NC(=O)c2cccc([N+](=O)[O-])c2)nnc1-c1ccc(F)cc1 | 19% | 0% | 10 | -1.9 | -7 | 2
c1ccc(OC2CCCCC2N2CCOCC2)cc1 (configuration not stated) | -18% | x | 1 | -1.7 | -13 | 0

Sorted by molecular weight (low to high): some entries from above
SMILES | gsp ag | gsp antag | Six1-Eya2 blk | D2 ag | D2 potentiator | CtBP-E1A blk
c1ccc(OC2CCCCC2N2CCOCC2)cc1 (configuration not stated) | -18% | x | 1 | -1.7 | -13 | 0
CCN(CC)C(=O)c1[nH]cnc1C(=O)Nc1ccc(OC)cc1 | u | 10% | -12 | 0.4 | -9 | -13
COc1ccc(/C=C2\CCc3ccccc3C2=O)cc1Cn1nc(C)cc1C | 1% | u | -9 | -3.3 | -15 | -2

The results go on.
SMILES | gsp ag | gsp antag | Six1-Eya2 blk | D2 ag | D2 potentiator | CtBP-E1A blk
COc1ccc(-c2nc(N3CCN(C)CC3)sc2-c2ccc(OC)cc2)cc1 | -11% | -14% | -23 | -0.2 | -6 | -15
C/C(=N\NC(=O)C(C)n1nc(C)c([N+](=O)[O-])c1C)c1ccccc1O (configuration not stated) | -4% | 0% | -9 | -2.2 | -41 | 0
Cc1cc(C)n(C(=O)c2ccc(C)c(Br)c2)n1 | u | -2% | 20 | -1.6 | -6 | 5
COc1ccc(C)cc1NC(=O)c1nnn(Cc2cccc(F)c2)c1N | 1% | -10% | 0 | 3.2 | -3 | -3
Cc1c(C(=O)NCCN2CCCC(O)C2)oc2c(F)cccc12 (configuration not stated) | -20% | 2% | 1 | -0.2 | -13 | -2
Nc1ccc(C(=O)Nc2nc3ccccc3s2)cc1 | -38%[inhibitor] | -4% | 4 | 0.1 | -6 | -15
O=C(Nc1ccc(Cl)cc1)NC1CCCCNC1=O (configuration not stated) | u | -6% | 2 | -3.1 | -3 | -2
C=CCn1c(C)cc(C(=O)COc2nncc3ccccc23)c1C | 11% | -3% | -6 | -3.5 | -30 | -6
COc1ccc(OCCNc2cc(Cl)ccc2[N+](=O)[O-])cc1 | 11% | -5% | u | -3.4 | 1 | -23
COc1cccc(NC(=S)NCc2ccccc2)c1 | 12% | 5% | -2 | 2.3 | 6 | x
Cc1cc(C(O)c2ncc(-c3ccccc3)[nH]2)ccc1F (configuration not stated) | x | x | -17 | -4.5 | -9 | -11
C/C(=N\NC(=O)c1nnn(-c2nonc2N)c1CSc1ccc(Cl)cc1)c1cccnc1 | -24% | -10% | 1 | -1.7 | -23 | -3
CC(=O)N1CCN(CC(=O)c2ccc(Br)cc2)CC1 | 1% | -3% | -1 | -6.6 | -30 | -3
Cn1c(N)c(C(=O)COC(=O)c2ccccc2C(F)(F)F)c(=O)n(C)c1=O | 27% | 1% | -3 | -4.8 | -5 | -4
Cc1cc(C)c(OCC(=O)NCC2CCCO2)c(C)c1 (configuration not stated) | 14%[15.4 µM] | -3% | 0 | -1.3 | 5 | 2
Cn1c2c(c(=O)n(C)c1=O)C(c1ccc(O)cc1)Nc1ccccc1O2 (configuration not stated) | 14% | -4% | 8 | -1.7 | 7 | -3
Cc1ccc(Sc2ccc(C(=O)NC(C)C)cc2[N+](=O)[O-])cc1 | -7% | 0% | 4 | -2.3 | -6 | 0
CCc1sc(C(=O)Nc2ccc(F)cc2C)cc1C | -47%[inhibitor] | -1% | 9 | 0.5 | -11 | 5
CC1CCN(c2ccc(-c3ccc(NC(=O)C(F)(F)F)cc3)nn2)CC1 | -7% | 0% | 0 | 5.2 | -3 | 0
Cc1ccc(S(=O)(=O)N2CCN(C(=O)CC(C)(C)C)CC2)cc1 | 14%[15.4 µM] | 4% | 8 | -1.3 | -1 | 0
CCN1CCN(C(=O)c2ccc(CN(c3ccccc3)S(=O)(=O)c3ccccc3)cc2)CC1 | -1% | 12% | -11 | -3.1 | -33 | -15
COc1cc(C2c3cc4c(cc3C(OC3OC5COC(c6cccs6)OC5C(O)C3O)C3COC(=O)C23)OCO4)cc(OC)c1O (configuration not stated) | x | -15% | 1 | 11 | -8 | 1

Not a hit list; 1.4% or so of the library scored in one or more.
